# Vaccinia stage = blocks a specific stage of Vaccinia orthopoxvirus infection, primary screen, cell-based, single point; AID 1053133, 2014; Vaccinia-infected cells, mCherry/Venus stage reporter fluorescence; stronger effect = lower value; some inactives read as strong as hits; activity change (mCherry), % (test concentration not listed); 89,000 compounds, 0.01% hits;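 active means mCherry past -33% and 40 or more points under the early reporter, replicates agreeing; inconclusive means past -33% without that gap or agreement; tested in A549 cells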;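 further: scaled between vehicle wells and reference inhibitor wells; 23 nL library stock went into each well; one replicate is shown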
# Vaccinia stage Venus = also measured in Vaccinia stage; calls as there; activity change (Venus), %; measured here: Venus reporter, other viral stage;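 negative = less Venus signal; first of two replicates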
# * hit, by the source's call; u = inconclusive; x = not tested or not shown. An excerpt; count on the stated rates, not on these rows.
SMILES,Vaccinia stage,Vaccinia stage Venus
COCC(=O)N1C[C@@H](C)[C@H](OC)CN(C)C(=O)c2cc(NS(C)(=O)=O)ccc2OC[C@@H]1C,11.3,14.5
C[C@H]1CN([C@@H](C)CO)C(=O)c2c(c3ccccc3n2C)-c2ccccc2CO[C@H]1CN(C)C(=O)c1ccncc1,5.6,-5.0
O=C(Nc1nccs1)[C@H]1[C@H](CO)[C@H]2Cn3c(cccc3=O)[C@H]2N1C(=O)C1CC1,20.8,8.8
COCC(=O)N1C[C@H](C)[C@@H](OC)CN(C)C(=O)c2ccc(NC(=O)NC(C)C)cc2OC[C@H]1C,6.4,-0.9
O=C(C[C@@H]1CC[C@@H](NC(=O)NC2CCCC2)[C@@H](CO)O1)NCc1ccc(F)cc1,0.4,4.3
C[C@@H]1CN([C@H](C)CO)C(=O)c2cc(C3=CCCCC3)cnc2O[C@H]1CN(C)C(=O)c1cccnc1,12.8,6.7
C[C@@H]1CN([C@H](C)CO)C(=O)Cc2cc(NS(=O)(=O)c3ccccc3)ccc2O[C@@H]1CN(C)Cc1ccc(C(F)(F)F)cc1,-29.5,-23.9
O=C(C[C@H]1CC[C@H]2[C@@H](COC[C@@H](O)CN2Cc2ccccc2F)O1)NC1CCC1,6.9,4.6
CC(=O)N(C)C[C@H]1Oc2ncc(/C=C/c3ccccc3)cc2C(=O)N([C@@H](C)CO)C[C@H]1C,4.7,0.9
COc1ccc(NC(=O)N(C)C[C@H]2OCCCC[C@@H](C)Oc3ccc(NC(=O)NC(C)C)cc3C(=O)N([C@H](C)CO)C[C@@H]2C)cc1,5.1,2.4
Cc1ccc(S(=O)(=O)Nc2ccc3c(c2)CC(=O)N([C@@H](C)CO)C[C@H](C)[C@H](CN(C)Cc2ccccc2)O3)cc1,2.0,-1.5
CN(C)CCCNC(=O)C[C@@H]1CC[C@H]2[C@H](COc3ccc(NC(=O)c4cccc(F)c4)cc3C(=O)N2C)O1,4.3,4.2
Cc1noc(C)c1NC(=O)Nc1ccc2c(c1)C(=O)N([C@H](C)CO)C[C@H](C)[C@@H](CN(C)S(=O)(=O)c1cn(C)cn1)OCCCC[C@@H](C)O2,14.4,10.2
C[C@@H]1CCCCO[C@@H](CN(C)S(=O)(=O)c2ccc(F)cc2)[C@@H](C)CN([C@H](C)CO)C(=O)c2cc(NC(=O)CCC(F)(F)F)ccc2O1,9.4,5.2
COc1ccc(NC(=O)N(C)C[C@@H]2Oc3c(NC(=O)Nc4c(C)noc4C)cccc3C(=O)N([C@H](C)CO)C[C@@H]2C)cc1,-5.3,4.4
CCC(=O)N[C@@H]1C=C[C@H](CC(=O)NCc2ccccc2F)O[C@@H]1CO,-10.3,1.0
O=C(C[C@H]1C[C@H]2c3cc(NS(=O)(=O)c4ccc(F)cc4)ccc3O[C@H]2[C@@H](CO)O1)NCc1ccc(Oc2ccccc2)cc1,u,x
Cc1ccc(S(=O)(=O)Nc2cccc3c2O[C@@H](CN(C)CC2CC2)[C@@H](C)CN([C@@H](C)CO)C3=O)cc1,4.4,11.6
COCC(=O)Nc1ccc2c(c1)C(=O)N(C)C[C@H](OC)[C@H](C)CN(C(=O)c1cccnc1)[C@@H](C)CO2,6.5,6.7
C[C@H](CO)N1C[C@H](C)[C@@H](CN(C)Cc2ccc(C(F)(F)F)cc2)Oc2ccc(NC(=O)Cc3cn(C)c4ccccc34)cc2C1=O,12.9,12.0
C[C@H]1CN([C@@H](C)CO)C(=O)Cc2cc(N(C)C)ccc2O[C@H]1CN(C)Cc1ccccc1,2.0,0.8
CO[C@@H]1CN(C)C(=O)c2ccc(NC(=O)C3CC3)cc2OC[C@@H](C)N(Cc2nccs2)C[C@@H]1C,1.4,3.9
O=C(N[C@H]1CC[C@H](CCn2cc(-c3ccc(F)cc3)nn2)O[C@@H]1CO)c1cnccn1,0.7,-4.0
C[C@H]1CN([C@@H](C)CO)C(=O)Cc2cc(NC(=O)C3CC3)ccc2O[C@H]1CN(C)Cc1ccc2c(c1)OCO2,0.9,6.2
COc1ccc(C#Cc2ccc3c(c2)[C@@H]2[C@@H](CCN2C(=O)CN2CCOCC2)[C@H](CO)N3C)cc1,u,x
# Next entries.
SMILES,Vaccinia stage,Vaccinia stage Venus
O=C(NC[C@@H]1CC[C@H]2[C@H](CN2Cc2cccc(Cl)c2)O1)C1CC1,17.0,26.8
Cc1noc(C)c1S(=O)(=O)Nc1ccc2c(c1)CC(=O)N([C@@H](C)CO)C[C@@H](C)[C@H](CN(C)Cc1ccc(Cl)c(Cl)c1)O2,u,x
C[C@H](CO)N1C[C@H](C)[C@@H](CN(C)Cc2ccc(Oc3ccccc3)cc2)Oc2ccc(NC(=O)Nc3ccc4c(c3)OCO4)cc2C1=O,-34.0,-24.7
O=C(NCC[C@H]1CC[C@@H](NC(=O)C2CCOCC2)[C@@H](CO)O1)Nc1ccc(Cl)cc1,12.0,9.1
O=C(C[C@@H]1CC[C@@H]2[C@H](COC[C@H](O)CN2S(=O)(=O)c2ccc(Oc3ccccc3)cc2)O1)Nc1ccccc1,u,x
C[C@@H]1CN([C@H](C)CO)C(=O)c2cc(NS(=O)(=O)c3ccc(Cl)cc3)ccc2O[C@@H](C)CCCCO[C@@H]1CN(C)S(C)(=O)=O,16.7,16.8
C[C@@H](NC(=O)C[C@@H]1C[C@@H]2c3cc(NC(=O)CN(C)C)ccc3O[C@@H]2[C@H](CO)O1)c1ccccc1,5.8,12.0
COc1cccc(NC(=O)Nc2ccc3c(c2)C(=O)N(C)C[C@H](OC)[C@@H](C)CN(C)[C@H](C)CO3)c1,-7.1,-2.5
O=C([C@@H]1[C@@H](CO)[C@@H]2Cn3c(ccc(C4=CCCCC4)c3=O)[C@H]1N2)N1CCCCC1,25.9,15.3
C[C@@H]1CN([C@H](C)CO)C(=O)c2cc(Br)cnc2O[C@@H]1CN(C)C(=O)c1ccccn1,4.2,8.6
C[C@@H]1CN([C@H](C)CO)C(=O)c2cccc(NC(=O)Nc3ccc(C(F)(F)F)cc3)c2O[C@@H]1CN(C)Cc1ccc(C(=O)Nc2ccccc2N)cc1,-6.0,3.9
Cc1ccc(S(=O)(=O)N(C)C[C@@H]2OCCCC[C@@H](C)Oc3ccc(NC(=O)CCC(F)(F)F)cc3C(=O)N([C@H](C)CO)C[C@H]2C)cc1,u,x
CCCNC(=O)N(C)C[C@@H]1Oc2ncc(C#CC3CCCCC3)cc2C(=O)N([C@H](C)CO)C[C@H]1C,-23.1,-10.4
O=C(Nc1ccc(F)cc1)N1CCCCN2[C@H](C1)[C@@H](c1ccc(C#Cc3ccccc3)cc1)[C@@H]2CO,u,x
COc1ccccc1C#Cc1ccc2c(c1)O[C@H](CN(C)C)[C@@H](C)CN([C@@H](C)CO)S2(=O)=O,u,x
COCC(=O)Nc1ccc2c(c1)OC[C@@H](C)N(CCC(F)(F)F)C[C@@H](C)[C@@H](OC)CN(C)C2=O,-0.9,-6.8
C/C=C/c1ccccc1[C@@H]1[C@@H](C#N)N(C(=O)NC2CCCCC2)[C@H]1CO,-5.2,-4.2
O=C(O)[C@H]1[C@H](CO)[C@H]2Cn3c(ccc(-c4ccccc4)c3=O)[C@@H]1N2S(=O)(=O)c1ccccc1F,6.5,10.3
O=C(Nc1ccc2c(c1)[C@H]1C[C@H](CC(=O)N3CCCCC3)O[C@H](CO)[C@H]1O2)NC1CCCC1,11.0,12.8
CC(C)C#Cc1cnc2c(c1)C(=O)N([C@H](C)CO)C[C@H](C)[C@@H](CN(C)S(=O)(=O)c1cn(C)cn1)O2,24.1,8.0
Cc1noc(C)c1NC(=O)N(C)C[C@@H]1OCCCC[C@H](C)Oc2ccc(NC(=O)CCC(F)(F)F)cc2C(=O)N([C@@H](C)CO)C[C@H]1C,22.4,5.1
O=C(Cc1ccccc1)N1CC2(C1)[C@H](c1ccccc1)[C@@H](CO)N2S(=O)(=O)Cc1ccccc1,-15.4,-6.4
CN(C)C(=O)C[C@@H]1C[C@@H]2c3cc(NC(=O)Nc4ccc(C(F)(F)F)cc4)ccc3O[C@@H]2[C@H](CO)O1,-6.0,-7.4
CC(C)NC(=O)N(C)C[C@H]1OCCCC[C@H](C)Oc2ccc(NS(=O)(=O)c3cccs3)cc2C(=O)N([C@@H](C)CO)C[C@@H]1C,18.6,7.0
CS(=O)(=O)N1CCCCN2[C@@H](CO)[C@H](c3ccc(C#Cc4ccccn4)cc3)[C@@H]2C1,31.1,10.5
# (list continues)
SMILES,Vaccinia stage,Vaccinia stage Venus
CCCC(=O)Nc1ccc2c(c1)C(=O)N(C)C[C@@H](OC)[C@H](C)CN(CCC)[C@H](C)CO2,-7.9,-5.8
C[C@@H]1CCCCO[C@@H](CN(C)Cc2ccc(C(=O)O)cc2)[C@H](C)CN([C@@H](C)CO)C(=O)c2cc(N(C)C)ccc2O1,14.0,6.0
C[C@@H]1CN([C@@H](C)CO)C(=O)c2cc(NC(=O)Nc3ccc(F)cc3)ccc2O[C@H]1CN(C)Cc1ccc(Cl)c(Cl)c1,-26.0,-22.1
O=C(Nc1cc(F)ccc1F)N1CC(=O)N2[C@H](CO)[C@@H](c3ccc(-c4ccccc4)cc3)[C@@H]2C1,-15.6,-11.7
O=C(NCC[C@H]1CC[C@H](NC(=O)c2ccncc2)[C@@H](CO)O1)Nc1ccc(Cl)cc1,5.0,6.3
CNC[C@H]1Oc2cc(-c3cncnc3)ccc2S(=O)(=O)N([C@@H](C)CO)C[C@H]1C,3.1,10.6
CCC(=O)N[C@@H]1C=C[C@@H](CC(=O)NCCN2CCCCC2)O[C@@H]1CO,9.0,6.1
C[C@@H]1CN([C@H](C)CO)C(=O)c2cc(NC(=O)C3CC3)ccc2O[C@@H]1CN(C)C(=O)NC1CCCCC1,6.1,8.6
COCC(=O)N1CC2(C1)[C@H](c1ccc(-c3ccccc3)cc1)[C@@H](CO)N2C(C)=O,-9.3,-1.8
CCS(=O)(=O)N1CC2(C1)[C@H](c1ccccc1)[C@H](CO)N2C(=O)C1CC1,10.9,5.3
CN1C(=O)c2cc(NC(=O)CC(F)(F)F)ccc2OC[C@H]2O[C@@H](CC(=O)NC3CCC3)CC[C@@H]21,7.0,11.4
CCCNC(=O)N(C)C[C@@H]1Oc2ncc(C#CC3CCCCC3)cc2C(=O)N([C@@H](C)CO)C[C@@H]1C,-7.8,-0.7
COCC#Cc1cnc2c(c1)C(=O)N([C@@H](C)CO)C[C@H](C)[C@@H](CN(C)C(=O)Nc1cccc(F)c1)O2,20.3,16.5
CCCC(=O)Nc1ccc2c(c1)C(=O)N(C)C[C@@H](OC)[C@@H](C)CN(C(C)=O)[C@H](C)CO2,10.5,11.2
CO[C@H](CN(C)CC1CCOCC1)[C@@H](C)CN(C(=O)Nc1ccc(F)cc1)[C@@H](C)CO,10.9,11.7
CO[C@H]1CN(C)C(=O)c2cc(NS(=O)(=O)c3ccccc3)ccc2OC[C@H](C)N(Cc2cccnc2)C[C@H]1C,12.7,6.7
C[C@H]1CN([C@@H](C)CO)C(=O)Cc2cc(NC(=O)Nc3ccc(C(F)(F)F)cc3)ccc2O[C@H]1CN(C)C(=O)NC1CCCCC1,u,x
COc1ccc(NC(=O)N(C)C[C@H]2Oc3ccc(NS(=O)(=O)c4ccc(OC)cc4)cc3CC(=O)N([C@@H](C)CO)C[C@H]2C)cc1,6.4,11.3
O=C(C[C@H]1CC[C@@H](NC(=O)c2ccccn2)[C@H](CO)O1)NCc1cc(F)cc(F)c1,8.2,1.3
O=C(C[C@H]1C=C[C@H](NC(=O)C2CCC2)[C@H](CO)O1)NC1CCC1,3.1,6.7
Cc1noc(C)c1S(=O)(=O)N(C)C[C@@H]1OCCCC[C@H](C)Oc2ccc(NC(=O)c3ccccc3)cc2C(=O)N([C@@H](C)CO)C[C@H]1C,-16.5,-8.3
N#C[C@H]1[C@H](c2ccccc2-c2cccc(F)c2)[C@@H](CO)N1C(=O)C1CCOCC1,10.6,1.5
CCC(=O)N1CC(=O)N2[C@H](CO)[C@H](c3ccc(-c4cccc(C(=O)N(C)C)c4)cc3)[C@@H]2C1,24.9,10.6
C[C@H](CO)N1C[C@H](C)[C@@H](CN(C)Cc2ccc(Oc3ccccc3)cc2)Oc2ccc(NC(=O)Cc3cn(C)c4ccccc34)cc2C1=O,-22.3,-19.0
CCC(=O)Nc1ccc2c(c1)C(=O)N(C)[C@H]1CC[C@H](CC(=O)N[C@H](C)c3ccccc3)O[C@@H]1CO2,20.6,6.2
CC(C)NC(=O)N1C[C@@H]2[C@H](c3ccccc31)[C@H](CO)N2C(=O)c1ccc(F)cc1,-6.0,6.4
C[C@H](CO)N1C[C@H](C)[C@@H](CN(C)Cc2ccc(-c3ccccc3)cc2)Oc2ccc(NS(=O)(=O)c3cn(C)cn3)cc2C1=O,-1.4,5.4
O=C1CN(S(=O)(=O)Cc2ccccc2)C[C@H]2[C@H](c3ccc(C#Cc4cccnc4)cc3)[C@H](CO)N12,-6.7,-15.4
